StopGo FLuc: FMDV 2A StopGo reporter, firefly signal. HEK cells with a luciferase reporter of 2A StopGo recoding. Potency, µM (highest dose often 57.5 µM), for inactives: at the top dose signal change, negative = less light. hit rate 0.23% among 120,000. AID 1745856; active = well fitted falling curve with a large enough effect; inconclusive = small, poorly fitted or top-dose-only effect; inactive = no such curve, though single readings can be large or run the other way; note: nearly all actives have a fitted effect of over 60% in size; overnight with compound
StopGo RLuc: lowers the Renilla signal of an FMDV 2A StopGo reporter. HEK cells with a luciferase reporter of 2A StopGo recoding. Potency, µM (titrated, usually from 57.5 µM), for the others: at the highest dose signal change, negative = less light. hit rate 0.32% among 120,000; active means well fitted falling curve with a large enough effect; inconclusive means small, poorly fitted or top-dose-only effect; inactive means no such curve, though single readings can be large or run the other way; note: nearly all actives have a fitted effect of over 55% in size; overnight with compound
Active calls of the source: *; u = inconclusive; [ ] = dose if it differs, or a comment. % is set by controls: 0 for no effect and ±100 for the full control effect; potency is the fitted concentration of half-maximal effect.

1: CCCc1cc(=O)n2[nH]c(NC(=O)C(C)C)nc2n1
2: COc1ccc(N2CC(C(=O)NCCNC(=O)c3c[nH]c4ccccc34)CC2=O)cc1 (configuration not stated)
3: O=C(Nc1cccc2ncccc12)c1ccc([N+](=O)[O-])cc1
4: Cc1ccc(-n2ncc3c(NC(C)c4ccccc4)ncnc32)cc1 (configuration not stated)
5: COC(=O)C1CN(Cc2cn(Cc3ccc(OC)cc3)nn2)CCS(=O)(=O)N1Cc1ccc(C)cc1 (configuration not stated)

Screen / compound no.	1	2	3	4	5
StopGo RLuc	-3%	-7%	-5%	2%	-7%
StopGo FLuc	-5%	-12%	8%	135%[activator]	-11%

6: CCn1c(=O)sc2cc(NS(=O)(=O)c3ccc(F)c(C)c3)ccc21
7: CCN(CC(=O)NC1CCS(=O)(=O)C1)C(=O)c1cc(-c2ccc(C)cc2)nc2ccccc12 (configuration not stated)
8: N#Cc1ccccc1CNc1ccccc1Cl
9: CN(Cc1cc(=O)n2cc(Cl)ccc2n1)Cc1ccccc1Cl
10: COc1ccc(-c2noc(-c3nnn(-c4cc(C)ccc4C)c3N)n2)cc1

Screen / compound no.	6	7	8	9	10
StopGo RLuc	-10%	-9%	40%[activator]	57%[activator]	-6%
StopGo FLuc	u	-5%	45%[activator]	245%[activator]	52%[activator]

11: CCOc1ccccc1NC(=O)CCn1nc(C)c(S(=O)(=O)N2CCCCC2)c1C
12: c1ccc(CSc2nc3ncccc3[nH]2)cc1
13: CCC(=O)N(C)C(c1ccc(C)cc1)c1c[nH]c2ccccc12 (configuration not stated)
14: CC(C)NC(=O)C1CCC(Cn2c(=O)c3sccc3n(CC(=O)Nc3ccccc3)c2=O)CC1 (configuration not stated)
15: Cc1ccc(Nc2nc(C)cc(C)n2)c(C(=O)O)c1

Screen / compound no.	11	12	13	14	15
StopGo RLuc	-5%	3%	15%	-3%	5%
StopGo FLuc	-20%	99%[activator]	25%	0%	-11%

Next part, overlapping the part above by four compounds.
12: c1ccc(CSc2nc3ncccc3[nH]2)cc1
13: CCC(=O)N(C)C(c1ccc(C)cc1)c1c[nH]c2ccccc12 (configuration not stated)
14: CC(C)NC(=O)C1CCC(Cn2c(=O)c3sccc3n(CC(=O)Nc3ccccc3)c2=O)CC1 (configuration not stated)
15: Cc1ccc(Nc2nc(C)cc(C)n2)c(C(=O)O)c1
16: COCc1ccc(C(=O)NC(C)c2ccc(F)cc2)cc1 (configuration not stated)
17: CCOC(=O)c1c(NC(=O)COc2ccc(Cl)cc2Cl)sc2c1CCCCC2
18: O=S(=O)(F)CCSc1nnc2sc3ccccc3n12
19: Cc1nn(C)c(C)c1C1SCC(=O)Nc2c1c(C)nn2-c1ccccc1 (configuration not stated)
20: C[C@@H]1C[C@H](O)CCCCCC(=O)Cc2cc(O)cc(O)c2C(=O)O1

Screen / compound no.	12	13	14	15	16	17	18	19	20
StopGo RLuc	3%	15%	-3%	5%	10%	-11%	-1%	-11%	-11%
StopGo FLuc	99%[activator]	25%	0%	-11%	25%	-7%	16%	-1%	-2%

21: O=C1CN(C(=O)c2cc(-c3ccccn3)nc3cc(F)ccc23)CCN1
22: Cc1cc(C(F)(F)F)nc(SC(C(=O)O)c2ccccc2)n1 (configuration not stated)
23: CCCN(CCC)S(=O)(=O)c1ccc(C(=O)O)cc1
24: O=C(CSc1nnc(-c2ccc(Cl)cc2)o1)N1CCC(c2ccccc2)=N1
25: O=C1CN(c2nc(-c3ccsc3)nc3ccccc23)CCN1

Screen / compound no.	21	22	23	24	25
StopGo RLuc	-4%	17%	-5%	1%	0%
StopGo FLuc	2%	16%	-17%[11.5 µM]	12%	14%

26: CS(=O)(=O)N1CCc2cc(C(=O)NCc3ccccc3)ccc21
27: CCCC(=O)Nc1nnc(S(=O)(=O)N(C)c2ccccc2)s1
28: CCc1ccc2c(COC(=O)c3n[nH]c4ccccc34)cc(=O)oc2c1
29: O=C(Cn1c(=O)c2cccn2c2ccccc21)NCc1ccccc1F
30: CN(C)C(=S)N(C)C

Screen / compound no.	26	27	28	29	30
StopGo RLuc	-4%	0%	13%	8%	9%
StopGo FLuc	11%	-7%	152%[activator]	2%	16%

31: O=c1c(N2CCc3ccccc3C2)csc2ccc(Cl)cc12
32: CN(C)c1cc(CNC(=O)Cc2ccccc2F)ccn1
33: O=C(O)P(=O)(O)O
34: CNC(=O)CNC(=O)c1ccc(Br)cc1
35: COCCn1c(SCC(=O)c2ccc(Br)s2)nnc1-c1ccc(Cl)cc1

Screen / compound no.	31	32	33	34	35
StopGo RLuc	65%[activator]	0%	3%	-2%	9%[1.06 µM]
StopGo FLuc	44%[activator]	157%[activator]	0%[11.5 µM]	18%	-16%

36: Clc1ccc(Nc2nc(NC3CCCCCC3)nc3c2cnn3-c2ccccc2)cc1
37: CCOc1ccc(NC(=O)Cn2c(CCC(=O)O)ccc2-c2ccc(Cl)cc2)cc1
38: N#Cc1cccc2[nH]ccc12
39: Cc1nn2c(C(F)(F)F)cc(-c3ccc(OC(C)C)cc3)nc2c1C#N
40: O=C(OCc1cc(=O)n2nc(C3CC3)sc2n1)c1ccc(F)cc1

Screen / compound no.	36	37	38	39	40
StopGo RLuc	-8%	-8%	6%	-7%	-6%
StopGo FLuc	-17%	-13%	25%	-15%	-13%

41: COC(=O)C1=C(c2ccccc2)c2ccccc2S(=O)(=O)N1CC(=O)Nc1cc(Cl)ccc1C
42: COC(=O)c1ccc(NC(=O)CCS(=O)(=O)c2ccc(Br)cc2)cc1
43: Cc1ccc(C(=O)c2ccccc2C(=O)OCc2ccc(Cl)cc2Cl)cc1
44: Cc1ccc(-c2nn(CC(=O)N(C)C)c(=O)c3ccccc23)cc1S(=O)(=O)N(C)C
45: CCOc1cc(C(=O)Nc2ccc3oc(-c4ccc(F)cc4Cl)nc3c2)cc(OCC)c1OCC

Screen / compound no.	41	42	43	44	45
StopGo RLuc	29%	-2%	80%[activator]	2%	1%
StopGo FLuc	-7%	-9%	-2%	0%	102%[activator]

Random excerpt: 3 entries already listed, in no set order.
45: CCOc1cc(C(=O)Nc2ccc3oc(-c4ccc(F)cc4Cl)nc3c2)cc(OCC)c1OCC
42: COC(=O)c1ccc(NC(=O)CCS(=O)(=O)c2ccc(Br)cc2)cc1
44: Cc1ccc(-c2nn(CC(=O)N(C)C)c(=O)c3ccccc23)cc1S(=O)(=O)N(C)C

Screen / compound no.	45	42	44
StopGo RLuc	1%	-2%	2%
StopGo FLuc	102%[activator]	-9%	0%

Next section
46: O=C(NCc1ccc(S(=O)(=O)N2CCOCC2)cc1)c1cc(-c2ccncc2)nc2ccccc12
47: Cn1c(SCC(=O)NC2CCCCC2)nnc1-c1ccc(F)cc1
48: Cc1ccc2c(c1)C(c1ccc(F)cc1)N(C(=O)c1cccc(C(F)(F)F)c1)CC(=O)N2 (configuration not stated)
49: CS(=O)(=O)N(CCCC(=O)Nc1ccc2c(c1)OCCO2)c1ccc(Cl)cc1
50: CC1(c2ccc(C#N)cc2)NC(=O)N(Cc2coc(-c3cccs3)n2)C1=O (configuration not stated)

Screen / compound no.	46	47	48	49	50
StopGo RLuc	33%[activator]	10%	-8%	-1%	-28%
StopGo FLuc	15%	19%	u	25%	-3%

51: COc1ccc2nc3sc(C(=O)Nc4cc(Cl)c(OC)cc4OC)cc3cc2c1
52: CC(C)c1ccc(OCC(O)CN2CCN(c3ccc(F)cc3)CC2)cc1 (configuration not stated)
53: CC1(C)CC(=O)C/C(=N/NC(=O)c2ccccc2)C1
54: CC(=O)c1cccc(NC(=O)CN(CCc2ccccc2)S(C)(=O)=O)c1
55: CCOc1ccccc1C1Nc2ccccc2-c2nnc(SCc3ccccc3)nc2O1 (configuration not stated)

Screen / compound no.	51	52	53	54	55
StopGo RLuc	-10%	u	36%[activator]	0%	23%
StopGo FLuc	14%	u	140%[activator]	9%	16%

56: O=c1oc(-c2ccccc2Cl)nc2ccc(Br)cc12
57: O=C(Nc1ccc(Cl)cc1F)c1oc(=O)c2ccccc2c1-c1ccccc1
58: COc1ccccc1N1CCN(S(=O)(=O)c2c(C)nc3sc(C)c(C)n3c2=O)CC1
59: CN(C(=O)CSc1nc2ccc(NC(=O)c3ccccc3)cc2s1)c1ccccc1
60: COc1ccccc1NC(=O)N1CCN(c2ccc3nnc(-c4ccc(F)cc4)n3n2)CC1

Screen / compound no.	56	57	58	59	60
StopGo RLuc	11%	4%	-9%	-29%	10%
StopGo FLuc	38%[activator]	-4%	-26%	-17%	18%

61: CC(O)c1ccc(-c2ccc(CNCc3cccnc3)o2)cc1 (configuration not stated)
62: CCSc1nc(-c2ccccc2OC)nc2c1Cc1c(CO)cnc(C)c1O2
63: O=C(Nc1cccc(Cl)c1)N1CCSc2ncccc21
64: c1coc(-c2ccn[nH]2)c1
65: Cc1ccc(CCNC(=O)c2noc(C)c2Cn2nc(C)cc2C)cc1

Screen / compound no.	61	62	63	64	65
StopGo RLuc	-12%	-12%	0%	2%	-1%
StopGo FLuc	20%	-9%	32%[activator]	2%	0%

As entered above.
For StopGo FLuc, CCCC(=O)Nc1nnc(S(=O)(=O)N(C)c2ccccc2)s1 has -7%
For StopGo RLuc, COc1ccc2nc3sc(C(=O)Nc4cc(Cl)c(OC)cc4OC)cc3cc2c1 has -10%

(further entries)
66: Cc1c(C)n(Cc2ccc(Cl)cc2)c2ccc(C(=O)N3CCN(c4ccccc4F)CC3)cc12
67: COc1ccc(NC(=O)Cn2cc(C(=O)C3CC3)c3ccccc32)cc1
68: Cc1c(Cl)cccc1NC(=O)CCc1ncc(-c2ccccc2)o1
69: Cc1ccccc1OCCN(C)C(=O)NCc1ccc(S(N)(=O)=O)cc1
70: Cc1cccc(CC(=O)NCCc2sc3nc(-c4ccc(F)cc4)nn3c2C)c1

Screen / compound no.	66	67	68	69	70
StopGo RLuc	-9%	-14%	8%	38%[activator]	-12%
StopGo FLuc	-11%	7%	4%	0%	-1%

3 compounds out of the list, arranged by molecular weight, highest first:
69: Cc1ccccc1OCCN(C)C(=O)NCc1ccc(S(N)(=O)=O)cc1
65: Cc1ccc(CCNC(=O)c2noc(C)c2Cn2nc(C)cc2C)cc1
67: COc1ccc(NC(=O)Cn2cc(C(=O)C3CC3)c3ccccc32)cc1

Screen / compound no.	69	65	67
StopGo RLuc	38%[activator]	-1%	-14%
StopGo FLuc	0%	0%	7%

Further records
71: O=C(Nc1ccc(Cn2cncn2)cc1)c1csc(NC2CC2)n1
72: Clc1cccc(C=Nc2cccc3c(N=Cc4cccc(Cl)c4)cccc23)c1
73: Cc1ccsc1CN(C(=O)c1oc2ccccc2c1C)C1CCS(=O)(=O)C1 (configuration not stated)
74: Nc1nccnc1C(=O)NCc1ccc2c(c1)OCCO2
75: O=C(CC1N=C2c3ccccc3N=C(SCc3ccccc3Cl)N2C1=O)NC1CCCCC1 (configuration not stated)

Screen / compound no.	71	72	73	74	75
StopGo RLuc	-26%	-2%	2%	u	6%
StopGo FLuc	40%[activator]	14%	7%	-20%	-11%

76: CCC(=O)N1N=C(c2ccccc2NS(C)(=O)=O)CC1c1ccco1 (configuration not stated)
77: Cc1ccccc1C(=O)OCC(=O)Nc1cc(F)cc(F)c1
78: CCCCc1nn2c(=O)cc(COC(=O)CNC(=O)c3cccc(C)c3)nc2s1
79: CC(CCO)Nc1nc2c(c(=O)n(C)c(=O)n2C)n1Cc1ccccc1F (configuration not stated)
80: Cc1cccc(CC(CC(=O)O)C(=O)O)c1 (configuration not stated)

Screen / compound no.	76	77	78	79	80
StopGo RLuc	-7%	14%	-3%	9%	11%
StopGo FLuc	-8%	161%[activator]	3%	1%	3%

81: Cc1ccc2c(CN3CCc4ccccc43)cc(=O)oc2c1
82: COc1cccc(C2NC(=O)c3n[nH]c(-c4cccs4)c32)c1 (configuration not stated)
83: Nc1nccnc1C(=O)NCCc1ccco1
84: CC(C)NC(=O)NC(=O)CN1CCCc2ccccc21
85: CCCCn1nc(C(=O)Nc2ccc(OC)c(OC(F)F)c2)c2ccccc2c1=O

Screen / compound no.	81	82	83	84	85
StopGo RLuc	1%	7%	-10%[1.06 µM]	-11%	10%
StopGo FLuc	24%	4%	0%	7%	5%

86: CCC(=O)N1CCc2cc(Br)cc(S(=O)(=O)CCC(=O)Nc3cccc(C)c3C)c21
87: COc1ccc(Cn2c(C(=O)O)c(CNCCc3ccccc3Cl)c3ccc(C)cc32)cc1
88: COc1ccc2[nH]c3c(c2c1)CCN(C(=O)c1cccc(Cl)c1)C3c1ccc(F)cc1 (configuration not stated)
89: CCOc1cc2nc(-c3ccc(OC)c(OC)c3)nc(N3CCCC(C)C3)c2cc1OC (configuration not stated)
90: COc1cc(CN(C(=O)COc2ccccc2Cl)c2ccccn2)cc(OC)c1OC
91: COc1ccc(S(=O)(=O)c2cn(C)c3ccc(C)cc3c2=O)cc1

Screen / compound no.	86	87	88	89	90	91
StopGo RLuc	12%	19%	u	-2%	40%[activator]	48%[activator]
StopGo FLuc	10%	-16%	u	-7%	0%	-5%

Compound activity (PubChem)

Not all compounds are listed (hit frequency here may not be typical).
